Screens (PubChem)
Polio RdRp inh = poliovirus RNA polymerase inhibition; % elongation, % (compound at 16.7 µg/mL); actives 0.66% (n = 150,000); P03300; poliovirus polymerase elongation, fluorescence polarization; active compounds read low; in the data active = % elongation below about 90%; also: some results filed as inactive read as strong as hits
Target sequence (P03300 1749-2209 limits assumed): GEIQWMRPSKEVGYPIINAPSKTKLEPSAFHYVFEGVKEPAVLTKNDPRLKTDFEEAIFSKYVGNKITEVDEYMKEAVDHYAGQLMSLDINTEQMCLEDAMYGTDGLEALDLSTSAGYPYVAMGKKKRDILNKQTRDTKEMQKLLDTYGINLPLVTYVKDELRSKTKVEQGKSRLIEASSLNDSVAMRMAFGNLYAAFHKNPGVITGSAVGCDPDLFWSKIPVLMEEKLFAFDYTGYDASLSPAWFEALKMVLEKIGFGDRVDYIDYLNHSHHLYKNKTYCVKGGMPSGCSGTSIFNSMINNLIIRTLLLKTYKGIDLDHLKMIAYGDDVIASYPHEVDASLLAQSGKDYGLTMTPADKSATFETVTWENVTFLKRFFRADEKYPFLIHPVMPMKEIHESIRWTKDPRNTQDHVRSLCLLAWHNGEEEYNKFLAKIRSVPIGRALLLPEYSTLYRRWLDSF
MbtI inh = MbtI salicylate synthase inhibition. inhibition, %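 (about 17 µg/mL by stock and volumes)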. purified MbtI enzyme, fluorescence intensity read-out. actives 0.89% (n = 100,000);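 active = above 50% in both replicates, above 80% if mildly self-fluorescent; inactive = the rest, strongly fluorescent compounds included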;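 also: 0% = mean of negative and 100% = mean of positive controls; one replicate is shown; some compounds called inactive have numbers as strong as hits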
Target sequence (P9WFX0 whole entry, looked up): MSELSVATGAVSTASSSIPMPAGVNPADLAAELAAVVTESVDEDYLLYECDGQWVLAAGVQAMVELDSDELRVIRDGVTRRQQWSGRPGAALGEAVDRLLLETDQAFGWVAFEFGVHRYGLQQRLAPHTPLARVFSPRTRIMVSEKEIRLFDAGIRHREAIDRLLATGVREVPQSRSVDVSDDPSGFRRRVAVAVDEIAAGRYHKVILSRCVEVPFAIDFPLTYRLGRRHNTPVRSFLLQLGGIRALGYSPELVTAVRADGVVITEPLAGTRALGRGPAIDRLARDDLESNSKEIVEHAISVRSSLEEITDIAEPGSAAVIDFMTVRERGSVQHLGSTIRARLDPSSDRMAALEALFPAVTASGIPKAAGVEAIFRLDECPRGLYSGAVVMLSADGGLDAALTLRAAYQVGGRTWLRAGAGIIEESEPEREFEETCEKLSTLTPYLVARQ
MenB inh = Mtb MenB enzyme inhibition | inhibition, %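 (about 12 µg/mL by stock and volumes)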 | MenB enzyme assay, absorbance read-out; some hits fall short of the stated cut | actives 0.43% (n = 100,000);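 active = mean of two replicates above 30%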;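 also: 0% = no compound and 100% = wells with inactive enzyme; the first replicate is given; strong numbers were not always called active; inactives centre near -10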
Polio RdRp inh intensity = second read-out of Polio RdRp inh, no call of its own (marks repeat the call); % elongation; measured here: total intensity read-out; formula for this scale not given here;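 total fluorescence in place of polarization; lower means less elongation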
* marks the source's active call; other numbers are inactive results; x = no result given; & = joins results of further samples.

SMILES	Polio RdRp inh	Polio RdRp inh intensity	MbtI inh	MenB inh
COc1ccc(NC(=O)c2ccc(-c3nc(COc4ccccc4)c(C)o3)cc2)c(OC)c1	103	103	-7	-20
Cc1ccccc1-c1noc(COC(=O)c2ccc(C#N)cc2)n1	99	105	-11	7
Cc1cc(Br)ccc1NC(=O)C1c2ccccc2C(=O)N2CCc3ccccc3C12 (configuration not stated)	100	101	19	-25
O=C1c2ccccc2C(=O)N1Cc1cccc(F)c1	105	103	1	-25
NNC(=O)c1nc(-c2ccccc2)no1	105	110	-9	4
Cc1cc(C(F)(F)F)n2nc(C(C)C)cc2n1	103	102	8	-8
Cc1cc2c(cc1NC(=O)CCc1ccccc1)n(C)c(=O)c(=O)n2C	104	103	-21	1
Cc1ccccc1NC(=O)C1C2CCCCC21 (configuration not stated)	103	103	-24	-13
Cc1nn(-c2ccccc2)c(C)c1P(C)(=O)c1ccccc1 (configuration not stated)	106	92	7	-24
Cc1cc(N2CCN(C)CC2)nc2ccc(NC(=S)N(C)C3CCCCC3)cc12	100	99	8	-18
COc1ccc(C(=O)c2nocc2C(=O)c2cccs2)cc1	104	112	x	-17
CCNC(=O)c1cc(-c2ccco2)nc2ccccc12	100	102	91	x
Cc1csc2c(N3CC(C)OC(C)C3)ncnc12 (configuration not stated)	102	99	-1	-18
CCN(c1ccc(NC(=O)CN(C)c2ccccc2)cc1)C(C)C	99	97	27	14
CCOC(=O)c1cnc(SC2CCc3ccccc3C2=O)nc1N (configuration not stated)	105	101	7	-9
CC(C)(C)c1ccc(CN(Cc2ccco2)Cc2nnnn2C2CCCCC2)cc1	102	102	1	-132
S=c1[nH]c(-c2ccccc2)cn1/N=C/c1ccncc1	98	99	69	-63
C=CCn1c(CCC(=O)OC)nc2ccccc21	103	102	-3	-15
COCc1nc2ccc(C)cc2[nH]1	105	101	4	0
O=C(Cc1ccc(Br)cc1)NN1CCOCC1	104	102	-13	-15
O=C(NC1C=CS(=O)(=O)C1)c1sc2ccccc2c1Cl (configuration not stated)	101	103	-4	-11
CCN(CC)S(=O)(=O)c1cc(C(=O)Oc2ccc3c(c2)OCO3)ccc1C	102	102	6	-35
Cc1cc(C(=O)CSc2nc3ccccc3n2C)c(C)n1C	106	107	-6	-10
O=C(COC(=O)c1cc2c(s1)CCC2)Nc1nccs1	102	109	-201	-18
CN(C)/C=C1/C=C(c2ccccc2)N(C)C1=S	101	105	0	-44
COc1ccc(C(=O)Nc2nccs2)c(OC)c1	100	101	1	-1
CCN(CC)c1nc(Nc2ccc(OC)c(Cl)c2)c2cnn(C)c2n1	99	102	78	-51
CCC1(C)Cc2ccccc2-c2[nH]c(=S)[nH]c(=O)c21 (configuration not stated)	102	99	62	-9
Cc1ccc(-c2ccc(C(=O)O)cc2)cc1	101	104	-5	x
COc1ccc(S(=O)(=O)N2CCC(NC(=O)NCCCO)CC2)cc1	103	104	13	-17
CCc1ccccc1NC(=O)CN(C)C(=O)Cn1nnc2ccccc2c1=O	103	100	4	0
O=C(c1ccccc1)c1ccc(Cl)s1	102	105	13	-15
CCCCCCNC(=O)n1cc(F)c(=O)[nH]c1=O	98	103	-10	1
CC(=O)N(c1ccc2oc3c(c2c1)CCCC3)S(=O)(=O)c1cccs1	104	103	4	-25
Cc1c(CCOC(=O)C2CC2)sc[n+]1CC(=O)c1ccccc1	101	104	-13	x
COC(=O)c1cc(C(=O)OC)cc(-n2c(C)cc(C(=O)COc3ccc(-c4nnco4)cc3)c2C)c1	96	102	-1	4
C=CCN1C(=O)S/C(=C\c2cc(OC)ccc2OC)C1=O	99	103	-13	-84
COC(=O)C1=C(C)NC(C)=C(C(=O)OCCSc2ccccc2)C1C (configuration not stated)	100&100	103&101	47	-4
O=S1(=O)Cc2snnc2-c2cc(Cl)ccc21	102	104	-25	5
CC(C)(C)c1ccc(-c2nnn(-c3ccccc3)n2)cc1	102	99	15	19
C=C(C)C(=O)Nc1cccnc1Oc1ccccc1F	100	105	8	11
CC(=O)Nc1ccc(C(=O)CSc2nnc3n2CCCCC3)c(F)c1	103	105	-4	-10
Cn1nccc1C(=O)NCCN	102	108	x	-19
O=S(=O)(NC1CCCCC1N1CCN(C2CCCCC2)CC1)c1ccccc1 (configuration not stated)	104	101	-8	-14
Cc1cc(=O)c2cccc(C(=O)O)c2[nH]1	101	106	6	16

Another view of 2 compounds above:
| compound | Polio RdRp inh | Polio RdRp inh intensity | MbtI inh | MenB inh |
| --- | --- | --- | --- | --- |
| O=S(=O)(NC1CCCCC1N1CCN(C2CCCCC2)CC1)c1ccccc1 (configuration not stated) | 104 | 101 | -8 | -14 |
| Cc1cc(=O)c2cccc(C(=O)O)c2[nH]1 | 101 | 106 | 6 | 16 |

Other records follow.
SMILES	Polio RdRp inh	Polio RdRp inh intensity	MbtI inh	MenB inh
CCC(C)Cn1c(C)c2c(=O)n(-c3nc4ccccc4s3)[nH]c2cc1=O (configuration not stated)	85	177	18	-95
COc1ccc(O)c(/C=N/NC(=O)CSc2nnc(C)n2-c2ccccc2)c1	99	100	-27	-46
CCc1ccc(-c2cc(C)no2)cc1S(=O)(=O)N1CCC(c2ccccc2)C1 (configuration not stated)	101	103	-16	-33
CC(C)N=c1scc(-c2ccc(F)cc2)n1/N=C/c1ccc(O)cc1O	103	101	-9	-29
COc1ccc2cc(C(=O)N3CCCCCC3)sc(=O)c2c1OC	104	106	-7	-22
O=C1C2C3C=CC(C3)C2C(=O)N1CCN1C(=O)C2C3C=CC(C3)C2C1=O (configuration not stated)	106	100	-10	-7
C/C(N)=C(/C#N)C(=O)CSc1nnc(SCc2ccc(Cl)cc2)s1	108	113	6	-46
Cc1cccc(C(=O)NCc2cn3cccc(C)c3n2)c1	108&105	98&108	-1	-25
Cc1cc(C(=O)COC(=O)CSc2ncnc3sccc23)c(C)n1-c1ccc2c(c1)OCO2	108	117	-4	-19
CC(=O)Oc1ccc2occ(-c3ccccc3)c2c1	103	100	6	-9
Cn1nc(-c2ccccc2)c(-c2nc3ccccc3n2C)c1-c1ccccc1	102	100	0	7
COC(=O)c1ccccc1NC(=S)N(C)C	98	99	2	-6
O=C1NC(c2ccccc2)C(c2ccccc2)N1 (configuration not stated)	100	102	x	-6
Cc1cc(C(=O)NCc2cc3ccccc3s2)nn1C	101	96	-1	3
Clc1cccc(Cl)c1NC1=NCCS1	106	110	-13	-11
O=C(NCc1ccco1)c1c(-c2ccccc2)c(-c2ccccc2)n[nH]c1=O	103	105	-13	-5
CCc1ccc(C2C3=C(CCCC3=O)OC3=C2C(=O)CCC3)cc1	104	100	9	-16
CCOc1ccc(OC(=O)c2cccnc2)cc1	101	106	-9	-10
Cn1c(C(C#N)(Cc2ccccc2)Cc2ccccc2)nc2ccccc21	105	108	-2	0
COCCNC(=O)c1ccc(N2CC3CC(C2)c2cccc(=O)n2C3)c(NC(=O)c2cc3ccccc3oc2=O)c1 (configuration not stated)	101	104	-5	-12
O=C(COC(=O)c1ccc2c(=O)n3c(nc2c1)CCCCC3)NC12CC3CC(CC(C3)C1)C2	100	104	0	-3
O=C1C2CCCC1CC(C(=O)N1CCN(c3ccccc3Cl)CC1)C2 (configuration not stated)	106	104	-20	-47
Cc1cc(NC(=O)CCS(=O)(=O)c2nc(-c3ccccc3)cc(C(F)(F)F)n2)no1	100	101	-26	-3
CCc1ccc(-n2c(=O)c3c4c(sc3n(CC(=O)N(C)C3CCCCC3)c2=O)CCC4)cc1	101	102	-7	1
COC(=O)c1ccc(NC(=O)CN(C)Cc2cccc(F)c2)cc1	103	103	-1	-16
CSc1nsc(SCC(=O)NC2=NC(=O)C(C)S2)n1 (configuration not stated)	99	103	4	-43
Nc1nonc1C(=NCc1ccccc1)NO	103	103	-15	-23
Cc1cccc(NC(=O)c2ccccc2)n1	99	100	-8	-7
O=C(c1ccccc1)c1ncc[nH]1	x	x	26	-22
O=C(O)CCN(C(=O)C1C2C=CC(C2)C1C(=O)O)c1ccccc1 (configuration not stated)	102	101	-16	-3
CCCCn1c(C)c(C(=O)OCC)c2cc(OC)ccc21	101	103	28	14
C=C[C@H]1CN2CC[C@H]1C[C@@H]2[C@H](O)c1ccnc2ccccc12	100	101	-17	-7
CC1(c2ccccc2)OC(=O)C2C3CCCCC3=C3CCCCC3C21 (configuration not stated)	102	96	15	-12
CCOc1ccc(NC(=O)CCC(=O)n2nc(C)cc2C)cc1	101	97	x	-14
CC(C(=O)O)N1C(=O)C2CC=CCC2C1=O (configuration not stated)	100	104	-7	x
COC(=O)NCc1cccc(CNC(=O)OC)c1	101	102	-3	11
O=S(=O)(NS(=O)(=O)c1ccccc1)c1ccccc1	99	101	-10	-42
C=CCOC(=O)c1ccc(NC(C)=O)cc1	100	101	-2	-31
O=S(=O)(c1ccc(S(=O)(=O)N(Cc2cccs2)C2CCCCC2)cc1)N1CCCC1	100	98	-3	-17
Cc1c(Cl)cccc1NC(=O)C(CC(=O)O)C1CCCO1 (configuration not stated)	104	102	-7	0
CCCCC1(C)OC(=O)C(=Cc2ccc3c(c2)OCO3)C(=O)O1 (configuration not stated)	99	101	12	17
COc1ccc(C(=O)NCc2nnc(SCC(=O)Nc3cc(C)cc(C)c3)o2)cc1OC	100	105	-7	-9
COc1ccc(S(=O)(=O)Nc2nc3ccccc3nc2NCC2CCCO2)cc1 (configuration not stated)	x	x	-79	-18
C=CCNCc1ccc(OC)c(OC)c1	101	104	7	9
CN(CC(=O)Nc1ccc(Cl)cc1)C1CCCCN(C(=O)c2ccc(F)cc2)C1=O (configuration not stated)	104	106	-5	-1
O=S1(=O)c2cccc3cccc(c23)N1Cc1nnc(-c2ccccc2Br)o1	102	97	-10	-29
CN(C)C(=O)COC(=O)c1cccc(C#N)c1	100	108	-15	-18
Cc1ccc(-c2onc3ccc(Cl)cc23)cc1	103	102	1	6
CCCc1cc(C(=O)OC)c(NC(=O)C2CCC2)s1	98	100	2	-20
O=C(COC(=O)C1CCN(c2ccc(C(F)(F)F)cn2)CC1)c1ccccc1	104	109	-3	-27
c1ccc(-c2ccn(-c3ccccc3)n2)cc1	105	106	26	x
COc1ccc(OC)c(/C=N/NC(=O)c2cn(C)c3ccccc23)c1	100	103	9	-17
O=c1cccc2n1CC1CC2CN(CC(O)c2ccc3[nH]ccc3c2)C1 (configuration not stated)	102	109	-6	-16
CC(C)(C)c1cc2c(c(C(C)(C)C)c1)Oc1cc(C#N)c(C#N)cc1O2	99	100	37	-2
CCc1ccc(NC(=O)N2CCSc3ncccc32)cc1	101	102	-20	3
N#Cc1c(-c2ccc(Cl)cc2)nc2n(c1=O)CCCS2	98	102	14	-12
Cc1ccc(CN(C)C(=O)COc2ccccc2-c2ccccc2)o1	104	110	86	-18
Cc1ccc(C2=NNC(=O)C(P(=O)(c3ccccc3)c3ccccc3)C2)cc1 (configuration not stated)	100	95	-12	-15
CC(=O)n1c(=O)oc2ccccc21	111	109	x	-2
CC(=O)N1C(=Nc2ccccc2C)SCC1(C)C	104	98	5	18

Continuation.
SMILES	Polio RdRp inh	Polio RdRp inh intensity	MbtI inh	MenB inh
CC1(C)CC(=O)CC(O)(C(F)(F)F)O1 (configuration not stated)	102	103	-4	14
Cc1ccc(NS(=O)(=O)c2c(C)noc2C)cc1	103	103	-7	-38
O=C(O)COCC(=O)Nc1nnc(C(F)(F)F)s1	100	94	36	15
CCn1cc(C2N3CC4(C)CN2CC(C)(C3)C4O)c2ccccc21 (configuration not stated)	100	105	-7	5
Cc1c(C(=O)OC2CCCCC2)sc2ncn(CC(N)=O)c(=O)c12	104	104	-5	12
O=C(CSc1nnnn1C1CC1)Nc1ccc2c(c1)CCC2	103	106	6	9
Cc1cc(N2CC(=O)N(CCc3ccccc3)C(=O)C2)nc(-n2nc(C)cc2C)n1	99	105	-6	-75
CSc1ccc(C(=O)NC(=O)Nc2cc(C)on2)s1	102	112	35	2
CN(C)c1ccc(C2OCCN2C(=S)Nc2ccccc2F)cc1 (configuration not stated)	106	108	-7	-9
COc1ccccc1NC(=O)Nc1nc(CC(=O)N2CCCC2)cs1	100	105	-7	-13
CCOC(=O)C1(c2ccccc2)CCN(CCC(=O)Nc2ccc(C(=O)OC)cc2)CC1	105	108	x	0

Among those listed so far, these have fluorine.
SMILES	Polio RdRp inh	Polio RdRp inh intensity	MbtI inh	MenB inh
O=C1c2ccccc2C(=O)N1Cc1cccc(F)c1	105	103	1	-25
Cc1cc(C(F)(F)F)n2nc(C(C)C)cc2n1	103	102	8	-8
CCCCCCNC(=O)n1cc(F)c(=O)[nH]c1=O	98	103	-10	1
C=C(C)C(=O)Nc1cccnc1Oc1ccccc1F	100	105	8	11
CC(=O)Nc1ccc(C(=O)CSc2nnc3n2CCCCC3)c(F)c1	103	105	-4	-10
CC(C)N=c1scc(-c2ccc(F)cc2)n1/N=C/c1ccc(O)cc1O	103	101	-9	-29
Cc1cc(NC(=O)CCS(=O)(=O)c2nc(-c3ccccc3)cc(C(F)(F)F)n2)no1	100	101	-26	-3
COC(=O)c1ccc(NC(=O)CN(C)Cc2cccc(F)c2)cc1	103	103	-1	-16
CN(CC(=O)Nc1ccc(Cl)cc1)C1CCCCN(C(=O)c2ccc(F)cc2)C1=O (configuration not stated)	104	106	-5	-1
O=C(COC(=O)C1CCN(c2ccc(C(F)(F)F)cn2)CC1)c1ccccc1	104	109	-3	-27
CC1(C)CC(=O)CC(O)(C(F)(F)F)O1 (configuration not stated)	102	103	-4	14
O=C(O)COCC(=O)Nc1nnc(C(F)(F)F)s1	100	94	36	15
CN(C)c1ccc(C2OCCN2C(=S)Nc2ccccc2F)cc1 (configuration not stated)	106	108	-7	-9
